T cruzi inh: blocks replication of Trypanosoma cruzi | T. cruzi beta-gal in NIH3T3, luminescence, 90 h | inhibition, % (no concentration beside the values) | 300,000 compounds, 1.4% hits;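 active means mean inhibition across valid replicates above about 55%, limit read from the data; inconclusive means mean below that limit but half or more replicates reach it; inactive means mean below it, under half of replicates reach it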;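 further: signal also drops with host cell toxicity which is not excluded here; 0% = plate median of DMSO wells and 100% = zero luminescence signal; higher percent means less beta-gal luminescence so fewer parasites; stock transfer was 50 nL into about 50 µL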
rRNA inh HTS: inhibitors of bacterial rRNA selective over humanized ribosomes | 350,000 compounds, 1.6% hits | AID 720706 | GFP signal change (wild-type ribosome), % (no concentration beside the values) | E. coli WT GFP vs humanized-ribosome RFP mutants, fluorescence, 24 h; hits give low values; DMSO median 0, no signal -100;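 active means significant combined selectivity score with lowered wild-type GFP, culture density cut under 30%, mutant RFP and density less affected; inactive means any of these conditions unmet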; further: one replicate is shown; some compounds called inactive have numbers as strong as hits
RanGTP-Impb inh: disruptors of Ran-importin-beta complex formation – biochemical, FRET, CFP-Ran, YFP-importin-beta, homogeneous, primary screen | cell-free CFP-Ran/YFP-importin-beta FRET ratio | inhibition, % (test concentration not listed) | 300,000 compounds, 1.1% hits | AID 2216;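 active means most replicates above 15%; inconclusive means exactly half above 15%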;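 further: 0% = DMSO wells and 100% = Ran loaded with GDP instead of GTP; wells of about 40 µL received 100 nL stock; the first replicate is given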
Beta apoptosis: beta cell apoptosis inhibition. INS-1E cytokine-induced death, ATP luminescence, 48 h; percent of positive-control rescue, neutral wells zero. protection from apoptosis, % (concentration not given with the values). 300,000 compounds, 0.8% hits. AID 435005;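 active means all replicates at 75% or more, or half of them and the mean; inconclusive means half reach 75% but not the mean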;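 further: 0% = cytokine-treated negative control wells and 100% = positive control rescue; higher means more ATP so stronger rescue from cytokine killing; wells of about 40 µL received 100 nL stock; the first replicate is given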
AF4-AF9 inh: MLL-AF4/AF9 protein interaction inhibition; P42568; AlphaScreen, biotin-AF4 peptide binding to FLAG-AF9; inhibition, % at 10 µM; 350,000 compounds, 0.47% hits;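 active means every replicate reaching a set inhibition limit, whatever the replicate mean, cut at about 25% in these data; inconclusive means mean inhibition reaches that limit but some replicates miss it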;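 further: 0% = plate neutral control median and 100% = total signal loss; the record names both 10 and 1 µM as test concentration; the first replicate is given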
Target sequence (P42568 whole entry, looked up): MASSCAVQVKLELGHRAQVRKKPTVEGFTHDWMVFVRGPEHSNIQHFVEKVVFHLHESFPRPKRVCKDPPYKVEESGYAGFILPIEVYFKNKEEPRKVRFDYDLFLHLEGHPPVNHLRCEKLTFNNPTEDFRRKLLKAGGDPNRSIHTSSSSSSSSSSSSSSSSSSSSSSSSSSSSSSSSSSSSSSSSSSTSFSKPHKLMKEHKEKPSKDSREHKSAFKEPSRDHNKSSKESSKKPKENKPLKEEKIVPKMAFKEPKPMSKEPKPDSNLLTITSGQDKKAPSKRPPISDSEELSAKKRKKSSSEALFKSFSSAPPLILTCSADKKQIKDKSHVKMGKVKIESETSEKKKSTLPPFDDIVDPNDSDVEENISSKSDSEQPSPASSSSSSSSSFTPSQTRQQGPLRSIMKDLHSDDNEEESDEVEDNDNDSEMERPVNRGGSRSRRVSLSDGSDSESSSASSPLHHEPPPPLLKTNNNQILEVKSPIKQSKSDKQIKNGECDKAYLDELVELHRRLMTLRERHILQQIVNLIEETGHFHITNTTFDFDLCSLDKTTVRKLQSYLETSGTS
ALR inh: blocks human ALR sulfhydryl oxidase activity. purified ALR, DTT oxidation, H2O2 HRP-luminol luminescence. inhibition, % (concentration not given with the values). 290,000 compounds, 3.8% hits. AID 485317;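 active means mean and each replicate at 75% or more; inconclusive means only one of the two met; inactive means neither met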;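 further: stock transfer was 7.5 nL into about 7.5 µL; 0% = neutral wells and 100% = wells with inactivated enzyme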
Target sequence (P55789 whole entry, looked up): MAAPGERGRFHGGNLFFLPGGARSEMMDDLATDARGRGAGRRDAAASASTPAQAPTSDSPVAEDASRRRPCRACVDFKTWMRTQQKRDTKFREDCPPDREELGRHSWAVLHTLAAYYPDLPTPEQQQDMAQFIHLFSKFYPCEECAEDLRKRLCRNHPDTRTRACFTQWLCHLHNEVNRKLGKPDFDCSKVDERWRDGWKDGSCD
Calb FLC: affects C. albicans growth with fluconazole; C. albicans CaCi-2 (fluconazole-resistant clinical isolate) + fluconazole, Alamar Blue growth, 48 h; growth inhibition, % (test concentration not listed); 300,000 compounds, 0.57% hits;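 active means most replicates above 75%; inconclusive means exactly half above 75%; inactive means most below 75%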;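 further: all wells also contain fluconazole at 8 µg/ml as a sub-toxic cotreatment; 0% = median of DMSO wells and 100% = median of geldanamycin control wells; wells of about 8 µL received 7.5 nL stock; the first replicate is given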
FGF22 binding: binders of recombinant human FGF22 by thermal shift | Q9HCT0 | calls only at 9.99 µM | 340,000 compounds, 1.5% hits | SYPRO orange fluorescence; percent of sucrose octasulfate shift, DMSO zero;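 active means melting point raised past a set limit in the mean and every replicate; inconclusive means no clear call; three in four hits are not shown here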
Target sequence (Q9HCT0 whole entry, looked up): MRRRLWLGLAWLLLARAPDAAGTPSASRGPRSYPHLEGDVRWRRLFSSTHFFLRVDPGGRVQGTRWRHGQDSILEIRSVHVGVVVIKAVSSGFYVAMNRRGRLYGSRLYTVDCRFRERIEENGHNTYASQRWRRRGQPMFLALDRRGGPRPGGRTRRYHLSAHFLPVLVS
rRNA inh HTS OD600: recorded beside rRNA inh HTS, whose call it bears; OD600 change, %; measured here: OD600 growth;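 optical density of the mix in the first replicate; 0 = DMSO median and -100 = no signal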
rRNA inh HTS RFP: also measured in rRNA inh HTS; calls as there; RFP signal change, %; measured here: RFP humanized mutant strains;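 first replicate; 0 = DMSO median and -100 = no signal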
The depositor's hits bear a star; i = inactive; ? = inconclusive; / = no result given. This is a subset (hit frequency here may not be typical).

SMILES	T cruzi inh	rRNA inh HTS	rRNA inh HTS OD600	rRNA inh HTS RFP	RanGTP-Impb inh	Beta apoptosis	AF4-AF9 inh	ALR inh	Calb FLC	FGF22 binding
O=C(CCC1CCCCC1)Nc1nncs1	-2	-14	-18	-1.6	0.1	-3	-3.0	-5	6	i
O=C(c1cccc(Cl)c1)N(Cc1cccs1)C1CCS(=O)(=O)C1 (stereo not given)	2	/	/	/	-0.6	1	/	-5	0	/
Cc1cc2nc(SC(C)C(=O)O)[nH]c2cc1C (stereo not given)	-21	/	/	/	0.8	-2	/	-2	2	/
CC(=O)Nc1ccc(NC(=O)c2ccccc2Sc2ccc([N+](=O)[O-])cc2Cl)cc1	36	-11	-1	0.1	7.7	5	0.8	-1	4	i
O=C(CN1C(=O)C2CC=CCC2C1=O)NC1CCCc2ccccc21 (stereo not given)	-7	/	/	/	2.3	0	/	-3	7	/
CN1c2ccsc2/C(=N/Nc2ccc(F)cc2)CS1(=O)=O	64*	-40	-51	0.5	/	-4	2.0	2	-3	i
OCCC1CN(Cc2ccc(F)cc2)CCN1CCc1ccccc1 (stereo not given)	-5	11	5	-3.1	-0.3	/	-2.4	-2	-5	i
Cc1ccc(C)c(NC(=O)CSc2nnc(CNC(=O)c3ccco3)n2C)c1	-1	/	/	/	3.3	-2	3.1	-4	-4	i
C#CCOCCOCCOCCNc1nc(N2CCN(C(=O)Cn3cc(CCO)nn3)CC2)nc(N2CCN(C(=O)[C@H](C(C)C)n3cc(CCO)nn3)CC2)n1	-18	7	1	0.9	-0.7	2	0.1	/	-1	i
NS(=O)(=O)c1ccc(NC(=O)CN2C(=O)CCC2=O)cc1	-9	11	15	9.3	-5.3	-4	-36	/	-1	i
N#CCC(=O)N1CCn2c1nc1ccccc12	-3	/	/	/	-2.8	0	/	14	-4	/
CCCn1c(SC(C)C(=O)NCC2CCCO2)nc2sc(CC)cc2c1=O (stereo not given)	8	0	-3	3.0	1.6	-6	0.6	2	7	i
CCc1ccc(NC(=S)Nn2cnnc2)cc1	6	1	2	-1.9	1.8	-10	-2.2	6	-14	i
O=C1C2C3CCC(C3)C2C(=O)N1CNc1ccccc1 (stereo not given)	6	/	/	/	-0.6	-7	/	39	-1	/
CCOc1c(Br)cc(CNCc2cccs2)cc1OC	0	/	/	/	3.4	-12	/	/	-52	/
COc1cc2[nH]c(=S)n(NC(=O)CC(C)C)c(=O)c2cc1OC	-6	/	/	/	-3.1	-3	/	56	-12	/
Cn1cc([N+](=O)[O-])c(C(=O)Nc2ccc(-c3nc4ccccc4o3)cc2)n1	6	5	7	-3.6	-1.7	-9	/	-7	-4	i
CC(C)(C)CN1C(=O)C(=O)NC[C@H]1Cc1cccc2ccccc12	-5	-6	-4	-6.5	-0.5	2	3.3	-25	-3	i
NC(=O)c1ccc(NC(=O)c2ccc3c(c2)OCO3)cc1	-3	2	1	-5.2	4.8	-2	-19	-5	2	i
COc1cccc(CNC(=O)COC(=O)C23CC4CC(CC(Cl)(C4)C2)C3)c1	/	-2	1	-3.1	/	2	-0.5	-2	/	i
CCN(CC)CCNC(=O)Cn1cnc2sc(C)c(S(=O)(=O)N3CCN(c4ccccc4OC)CC3)c2c1=O	12	5	8	-0.9	-4.6	-6	0.2	17	-1	i
CC(C)(C)OC(=O)N1CCC[C@@H]1C(=O)N1CCC(C(=O)O)CC1	-11	/	/	/	?	-6	/	0	3	/
O=C(NCCN1CCOCC1)c1noc2c1CCc1ccccc1-2	18	-8	-8	3.0	?	-5	-21	-24	37	i
CC(C)c1ccccc1OCCNC(=S)NC(=O)c1cccnc1	11	/	/	/	-0.7	-3	0.0	/	-12	/

3 entries from above, with values under each structure.
The line under a structure holds: T cruzi inh, rRNA inh HTS, rRNA inh HTS OD600, rRNA inh HTS RFP, RanGTP-Impb inh, Beta apoptosis, AF4-AF9 inh, ALR inh, Calb FLC, FGF22 binding
- CCOc1c(Br)cc(CNCc2cccs2)cc1OC
    0, /, /, /, 3.4, -12, /, /, -52, /
- COc1cc2[nH]c(=S)n(NC(=O)CC(C)C)c(=O)c2cc1OC
    -6, /, /, /, -3.1, -3, /, 56, -12, /
- Cn1cc([N+](=O)[O-])c(C(=O)Nc2ccc(-c3nc4ccccc4o3)cc2)n1
    6, 5, 7, -3.6, -1.7, -9, /, -7, -4, i

New compounds follow
SMILES	T cruzi inh	rRNA inh HTS	rRNA inh HTS OD600	rRNA inh HTS RFP	RanGTP-Impb inh	Beta apoptosis	AF4-AF9 inh	ALR inh	Calb FLC	FGF22 binding
CCOc1cc(/C=C(\C#N)C(=O)NCC2CCCO2)ccc1O (stereo not given)	-6	-1	1	1.6	1.7	-4	11	11	9	i
CC(=O)N1CCN(c2ccc(NC(=O)c3ccccc3Cl)cc2)CC1	3	5	12	5.6	-0.4	4	4.0	37	0	i
COc1ccc(Nc2nc3ccccc3nc2NS(=O)(=O)c2cccs2)cc1	-12	/	/	/	10.0	/	/	65	13	/
Cn1cc(CN2CCC(C(O)c3cccs3)CC2)c(-c2cccc(Cl)c2)n1 (stereo not given)	-2	21	11	4.3	-0.1	-1	0.6	-29	-19	i
CCc1ccc(OC(=O)Cc2ccc(OC)c(S(=O)(=O)N3CCOCC3)c2)cc1	/	-8	-15	-0.2	/	-5	1.7	8	/	i
O=C(CNS(=O)(=O)c1ccc2ccccc2c1)Nc1ccc(F)c(F)c1F	/	-1	2	-1.1	/	-4	3.0	/	/	i
COc1ccc(C2Oc3ccccc3N2C(C)=O)cc1 (stereo not given)	-12	/	/	/	1.6	-7	/	0	23	/
N=c1c(S(=O)(=O)c2ccc(Br)cc2)cc2c(=O)n3ccccc3nc2n1Cc1ccco1	1	0	9	1.6	4.4	-18	-0.8	12	-1	i
COc1cccc(CC(=O)N2CCC(n3nccc3NC(=O)C3CC3)CC2)c1	-25	1	14	-2.8	-2.3	-10	-0.1	-8	-35	i
Cc1c(C)c(C)c(S(=O)(=O)NCCc2ccncc2)c(C)c1C	13	2	-4	1.0	3.6	5	1.1	1	15	i
COc1ccc(/C=C(\NC(=O)c2ccc([N+](=O)[O-])cc2)C(=O)NCCCn2ccnc2)cc1	-2	20	2	7.6	-2.8	2	1.7	-8	2	i
CCn1c(COc2ccc(C)cc2)nnc1SCC(=O)NCc1ccco1	-14	-8	-33	-0.9	7.2	-7	-1.0	-3	-2	i
COc1ccccc1-n1c(N)c(C(N)=O)sc1=S	-12	/	/	/	0.4	0	/	?	-2	/
Cc1nn(-c2ccccc2)c2sc(C(=O)NNC(=O)COc3ccccc3)cc12	-1	/	/	/	1.1	-1	/	-5	31	/
CCn1c(SCC(=O)NCC(=O)Nc2ccc(F)cc2)nnc1-c1ccncc1	-16	/	/	/	0.7	2	/	-2	5	/
Cc1ccc(S(=O)(=O)N(CC2CO2)c2ccccc2[N+](=O)[O-])cc1 (stereo not given)	-14	0	-3	-1.1	6.3	1	-2.1	-6	-1	i
CCc1nc(NCCC(C)C)c2nnn(Cc3ccccc3)c2n1	1	12	11	2.8	-0.2	/	-8.4	-5	-1	i
CN1C(C(=O)Nc2ccc(F)cc2F)=CC(c2ccco2)=NS1(=O)=O	-8	10	9	2.0	-1.8	3	1.6	-2	-17	i
O=C(NC1CCN(C(=O)NCc2ccccc2)CC1)c1ccc(F)cc1	-6	7	12	-0.7	0.3	1	-3.5	-1	0	i
CCOC(=O)Cn1nc(C)n(-c2cccc(Cl)c2)c1=O	-14	6	-3	-3.9	-1.0	2	-0.2	-6	-6	i
CCOC(=O)C1=C(COC(=O)c2ccc(OC(C)C)cc2)NC(=O)NC1C (stereo not given)	1	0	2	-0.7	-1.8	-6	-6.6	-32	27	i
CN(C)c1ccc(NC(=S)N(CCc2ccccc2)C2CC(=O)N(c3c(Cl)cccc3Cl)C2=O)cc1 (stereo not given)	17	/	/	/	-8.3	11	/	-8	-2	/
O=c1cc(Cl)[nH]c(=O)n1Cc1ccccc1	-12	-2	1	-2.1	0.7	3	-0.8	-1	9	i
O=C(Nc1ccc(N2CCOCC2)cc1)c1cccc(-n2cnnc2)c1	-5	2	11	-2.3	1.1	-1	2.5	1	-1	i
CC1CC(C)(C)NC(=S)N1CCC(=O)N1CCN(Cc2ccccc2)CC1 (stereo not given)	-7	6	8	0.3	3.4	11	-0.5	-28	14	i
O=C(Nc1cccc(NC(=O)c2nccc3ccccc23)c1)c1ccco1	/	-19	-5	11	/	1	-3.0	0	/	i
O=C(COc1ccccc1F)Nc1cc(S(=O)(=O)N2CCOCC2)ccc1N1CCOCC1	11	-20	-15	-0.9	-1.4	-4	2.9	-6	-3	i
COc1ccc(NC(=O)N2CCC(c3ccccc3)C2)c(OC)c1 (stereo not given)	-5	-14	-17	-1.1	7.7	/	0.1	-24	8	i
COc1cccc(C(=O)NC2CCCc3c2cnn3-c2ccc(C)c(C)c2)c1OC (stereo not given)	-17	-37	-45	-7.5	-0.3	-9	-3.6	6	-6	i
O=C(Nc1cccnc1Cl)c1cccc(S(=O)(=O)N2CCOCC2)c1	-12	9	9	-0.2	-3.6	/	-0.3	/	-6	i
COc1ccc(/C=C/C(=O)C2(O)CCCCC2)cc1OC	6	-7	-1	0.3	6.9	-10	-1.3	6	-21	i
Cc1ccc(C(C)C)c(OCCN(C)C)c1	29	/	/	/	7.3	-1	/	-2	-6	/
C/C(CC(=O)Nc1cccc(C(F)(F)F)c1)=N\NC(=O)C1CCCCC1	2	-2	-4	0.1	-0.4	-8	-3.5	/	-2	/
O=C(NCC1COc2ccccc2O1)c1cc2ccccc2o1 (stereo not given)	8	/	/	/	-1.9	-4	/	-4	-1	/
CCOC(=O)C1CCN(C(=O)CN(c2cc(OC)ccc2OC)S(=O)(=O)c2ccccc2)CC1	34	/	/	/	?	0	/	-15	-5	/
Cc1ccc(C)c(OCC(=O)O/N=C(\N)c2cccnc2)c1	15	-7	4	-0.7	-0.4	/	4.9	-11	0	i
COc1ccc(C2c3cc(OC)c(OC)cc3CCN2C(=O)c2ccccc2)cc1OC (stereo not given)	15	-3	7	-4.9	-1.7	-5	7.5	/	20	i
CCC(=O)N(C)CCc1cc2c(c(OC)c1/C=N/NC(=O)c1ccccc1O)OCO2	-3	/	/	/	-3.2	-6	/	-6	-1	/
CN1CCN(CCCNC(=O)Cn2ncc3c4ccccc4n(C)c3c2=O)CC1	-17	-2	7	0.3	?	-2	7.8	-11	-4	i
CCOC(=O)c1nnc(-c2ccc(C)cc2)nc1Sc1ccccc1Cl	9	/	/	/	0.2	-5	/	53	-4	/
CN(C)/C=C/C(=O)c1cnc(-c2ccccc2)s1	-1	15	10	2.0	-0.1	-1	-1.5	23	-9	i
O=C(NCCN1CCN(Cc2ccccc2)CC1)c1cc2c(=O)[nH]c3ccccc3c2s1	17	-24	-21	7.2	?	/	/	-1	-20	/
O=C(COC(=O)C1=COCCO1)Nc1ncc(Cl)cc1Cl	4	-1	-3	-1.0	0.5	7	0.1	/	5	i
CC(C)Oc1cc(NC(=O)CSCC(=O)Nc2cccc(C(F)(F)F)c2)c(Cl)cc1Cl	-13	2	10	10	0.9	-2	0.0	-4	0	i

High-throughput results from PubChem BioAssay.
